From PubChem BioAssay
Pol eta inh – DNA polymerase eta (human) inhibition; AID 588591; Q9Y253; recombinant Pol eta, fluorescent DNA replication assay; 390,000 compounds, 1.2% hits; Potency, µM (top dose mostly 114 µM), for the others: at the highest dose activity change, negative = inhibition, hits mostly inhibitors; further: potency means the concentration at half of the fitted maximal effect
Target sequence (Q9Y253 whole entry, looked up): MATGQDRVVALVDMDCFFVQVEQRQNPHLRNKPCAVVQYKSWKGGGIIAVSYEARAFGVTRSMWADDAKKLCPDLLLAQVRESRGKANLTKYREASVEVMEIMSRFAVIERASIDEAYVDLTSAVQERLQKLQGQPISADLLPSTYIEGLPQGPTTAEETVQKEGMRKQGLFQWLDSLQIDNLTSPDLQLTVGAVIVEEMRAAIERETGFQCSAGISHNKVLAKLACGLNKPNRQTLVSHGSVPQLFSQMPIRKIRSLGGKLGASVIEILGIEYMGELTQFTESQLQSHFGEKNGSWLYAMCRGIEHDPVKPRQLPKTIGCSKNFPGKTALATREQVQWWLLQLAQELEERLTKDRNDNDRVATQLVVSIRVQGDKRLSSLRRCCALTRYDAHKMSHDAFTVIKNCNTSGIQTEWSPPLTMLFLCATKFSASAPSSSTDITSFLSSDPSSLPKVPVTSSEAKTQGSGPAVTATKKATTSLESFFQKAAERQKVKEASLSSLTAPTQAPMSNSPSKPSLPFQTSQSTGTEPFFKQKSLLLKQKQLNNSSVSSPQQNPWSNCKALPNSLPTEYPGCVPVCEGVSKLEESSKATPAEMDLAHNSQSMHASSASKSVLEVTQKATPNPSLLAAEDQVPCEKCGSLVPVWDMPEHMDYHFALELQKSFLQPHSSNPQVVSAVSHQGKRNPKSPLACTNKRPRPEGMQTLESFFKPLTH
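Pol eta at 10 nM preincubated with compounds 15 min at room temperature; reaction started with fluorescent substrate (50 nM final) and read kinetically at 0 and 10 min.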
Pin1 inhibitor – human Pin1 inhibition; Q13526; Pin1 FP peptide displacement, HiFluor488, 10 min; Potency, µM (titrated, usually from 115 µM), for the others: at the top dose activity, negative = inhibition, actives largely listed as inhibitors; 390,000 compounds, 0.009% hits; active means well fitted inhibition curve with a large enough effect in the polarisation, with a control signal flat, not every such curve was filed as active; inconclusive means small, poorly fitted or top-dose-only effect, or effect the other way, or a change in a side signal; inactive means no such curve, though single readings can be large or run the other way; the % refers to the polarisation; further: potency means the concentration at half of the fitted maximal effect
Target sequence (Q13526 whole entry, looked up): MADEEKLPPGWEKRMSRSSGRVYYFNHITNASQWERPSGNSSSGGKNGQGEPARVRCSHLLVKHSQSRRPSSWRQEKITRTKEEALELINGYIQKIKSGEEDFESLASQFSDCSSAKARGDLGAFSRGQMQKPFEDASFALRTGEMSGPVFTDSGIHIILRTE
PI4K2A block – PI4K2A (human) kinase inhibition | Q9BTU6 | purified PI4K2A, ADP-Glo luminescence, 1 h; hits give low values | activity change, negative = inhibition, % at 76.9 µM | 420,000 compounds, 0.13% hits | AID 1346378; in the data active means activity change below about -50%; inconclusive means mostly about -30% to -49%;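 further: -100% = wells without enzyme as full effect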
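In this quantitative HTS, ADP production by PI4K2A was quantified luminescently after 1 h at ambient temperature; 100 microM adenosine served as plate-quality control.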
PGK inhibitor – blocks T. brucei phosphoglycerate kinase | P07378 | PGK/GAPDH coupled, Kinase-Glo luminescence, 60 min | Potency, µM (doses to about 57.5 µM), for inactives: top-dose activity change, negative = inhibition, actives largely listed as inhibitors | AID 602233 | 380,000 compounds, 0.043% hits; further: potency means the concentration at half of the fitted maximal effect; nearly all actives have a fitted effect of over 60% in size
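Luminescent ATP detection (Kinase-Glo Plus) follows a 60-minute room-temperature incubation, with wells lacking PGK as controls. Buffer: 100 mM TEA (pH 7.6), 5 mM MgCl2, 0.01% Tween-20. Coupling enzyme GAPDH (100 nM final) supplies unstable 1,3-BPG in-well.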
GLS inhibitor – inhibitors of human glutaminase (GLS). O94925. GLS enzymatic activity, qHTS titration. Potency, µM (top dose mostly 45.5 µM), for the others: top-dose activity change, negative = inhibition, most hits filed as inhibitors. 410,000 compounds, 0.21% hits. AID 624170; further: potency means the concentration at half of the fitted maximal effect
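Assay buffer: 45 mM KH2PO4 pH 8.2, 0.02% Tween-20. hKGA acts on L-glutamine (1 mM solution added); product glutamate is reported by an oxidase/peroxidase Amplex Red coupling, with fluorescence taken at baseline and 30 min.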
G9a block – G9a (human) methyltransferase inhibition; G9a H3K9 monomethylation, AlphaScreen, 2 h; Potency, µM (top dose mostly 102 µM), without a hit: at the top dose activity, negative = inhibition, usual class: inhibitors; Q96KQ7; 350,000 compounds, 8.8% hits; further: potency means the concentration at half of the fitted maximal effect; nearly all actives have a fitted effect of over 75% in size
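Using a bead-based AlphaScreen, monomethylated H3K9 product from 2 h room-temperature reactions (G9a 20 nM, peptide 500 nM, SAM 20 uM) was detected with 0.5 ug/mL rabbit anti-H3K9me1 antibody.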
* hit, by the source's call; i = inactive; ? = inconclusive; . = not tested or not shown; [ ] = remark or other dose. Unless noted, the call rests on the fitted dose curve; in most records, active means well fitted curve in the direction sought with a large enough effect; inconclusive means small, poorly fitted or top-dose-only effect, or another doubt; inactive means no such curve, though single readings can be large; an effect the other way counts as inactive or inconclusive. Unless noted, on the % scale 0 is the no-effect control and ±100 the full control effect.

SMILES	Pol eta inh	Pin1 inhibitor	PI4K2A block	PGK inhibitor	GLS inhibitor	G9a block
COc1ccc(CN2CCN(C(=O)c3cccs3)CC2)c(OC)c1OC	6%	-4%	13	0%	15%	?
Clc1ccc(OCCn2c(-c3ccco3)nc3ccccc32)cc1	-21%	22%	-5	-9%	.	14%[12.7 µM]
COC(=O)c1ccccc1OCCN1CCCCCC1	-6%	-14%	1	4%	-7%	11µM*
Cc1ccc(-c2cc(N)n(Cc3cccc(Cl)c3)n2)cc1	-15%	-8%	3	8%	9%	?
Cc1ccc(OCCOCCN2CCCCC2)c([N+](=O)[O-])c1	-17%	-10%	-4	-6%	-3%	.
Cc1ccccc1CNCc1ccc2c(c1)OCO2	-6%	-1%	3	5%	1%	28µM*
CCN(CC)S(=O)(=O)c1ccc(C)c(NC(=O)CNCCN(C(C)C)C(C)C)c1	-12%	1%	2	i	3%	7.9µM*
O=C(CSc1ccc(-c2ccccn2)nn1)Nc1ccccc1	1%	-6%	2	i	-9%	-8%
CCOC(=O)C1CCCN(Cc2c(Cl)cccc2Cl)C1 (stereo not given)	-11%	-3%	6	-2%	1%	?
CCOC(=O)c1c(NC(=S)N2CCN(C)CC2)sc(C)c1-c1ccccc1	-24%	4%	-5	0%	2%	45µM*
COc1cccc(N2CCN(CC(=O)Nc3nc4c(s3)CC(C)CC4)CC2)c1 (stereo not given)	0%	-1%	9	i	2%	?
COc1cccc(N2CCN(Cc3nc(N)nc(Nc4ccccc4)n3)CC2)c1	-17%	-7%	-2	3%	16%	9%[12.7 µM]
COc1ccc(NC(=O)c2cccnc2C(=O)O)c(OC)c1	5%	-10%	2	-7%	-4%	2.5µM*
OCC1CCCCN1CC(O)COC(c1ccc(F)cc1)c1ccc(F)cc1 (stereo not given)	-16%	1%	9	-7%	-3%	8.9µM*
O=C(CN1CCc2ccccc2C1)Nc1ccccc1N1CCCCCC1	-25%	2%	3	-6%	38%[activator]	?
CSc1ccccc1NC(=O)CN(C)CC(=O)Nc1c(F)cccc1F	-8%	-19%	-2	-9%	9%	7.9µM*
CCOC(=O)c1cc(NC(=O)CNCC(c2ccccc2)N(C)C)cc(C(=O)OCC)c1 (stereo not given)	-5%	-2%	3	-4%	-3%	?
COc1ccc(C(=O)N2CCN(C3CCN(Cc4ccccc4)CC3)CC2)cc1OC	-3%	-8%	5	-3%	12%	11µM*
Cc1ccc(Nc2nc(N)nc(CN3CCN(c4ccccc4)CC3)n2)cc1Cl	-19%	1%	-3	i	4%	?
CC1CCCC(NC(=O)CNCc2ccccc2F)C1C (stereo not given)	-28%	-8%	-4	-1%	-12%	10µM*
Cc1cc(NC(=O)CN2CCCCC2C)no1 (stereo not given)	8%	-5%	3	-12%	1%	-39%[12.7 µM]
CC(=O)Nc1ccc(S(=O)(=O)N2CCN(Cc3ccccn3)CC2)cc1	15%	-4%	1	.	7%	?
CCOC(=O)c1sc(=S)n(CC)c1NC(=O)c1ccccc1C	-2%	-2%	-2	-7%	0%	.
CCc1ccc(CN2CCN(C(=O)c3cccc(OC)c3OC)CC2)cc1	-5%	-11%	6	1%	-24%	8.9µM*
O=[N+]([O-])c1cc(C(F)(F)F)ccc1Sc1nccn1Cc1ccccc1	-5%	0%	1	0%	8%	45µM*
COc1cccc(OCc2nnc(SCC(=O)NCc3ccco3)n2CCc2ccccc2)c1	14µM*	?	-9	-13%	3%	?
COc1ccc(NC(=O)CN(C)CCOc2ccc(Cl)cc2)cc1OC	-20%	-8%	12	-3%	-7%	45µM*
COc1cccc(-c2cnc(NCc3ccccc3Cl)n2C)c1	-11%	-3%	-1	-7%	16%	10µM*
COc1cc(OC)c(OC)cc1CN1CCN(Cc2ccc(C(F)(F)F)cc2)CC1	-12%	-15%	8	2%	13%	6.3µM*
Cc1ccc(C(=O)NC(=S)Nc2ccccc2N2CCCC2)cc1[N+](=O)[O-]	-15%	-3%	6	-7%	17%	2.8µM*
Cc1ccc(-n2c(SCc3ccc(C#N)cc3)nnc2-c2ccccn2)cc1	-11%	-6%	9	-1%	-6%	?
O=C(c1cc2ccccc2o1)c1nc2c(n1O)CCCCC2	-6%	?	-7	-8%	-3%	?
O=C(CCS(=O)(=O)c1ccc(F)cc1)Nc1nnc(-c2ccco2)o1	1%	-2%	2	-7%	-7%	28µM*
O=C(Nc1ccccn1)c1ccc2c(=O)n3c(nc2c1)CCCCC3	-10%	1%	-29	-15%	-4%	?
O=[N+]([O-])c1cccc(SSc2cccc([N+](=O)[O-])c2)c1	-20%	-10%	-15	3%	-28%	.
CN1CCN(c2ccccc2NC(=O)COc2ccc(C3CCCCC3)cc2)CC1	-28%	-7%	2	-7%	-3%	40µM*
CCOc1ccc(NC(=O)c2cccnc2C(=O)O)cc1	-2%	-1%	-8	i	-3%	?
O=C(CNc1ccc(Oc2ccccc2)cc1)N1CCOCC1	-8%	-9%	7	-7%	6%	?
COc1ccc(S(=O)(=O)N(c2onc(C)c2Cl)S(=O)(=O)c2ccc(OC)cc2)cc1	3%	2%	-6	9%	8%	?
COc1ccc(Nc2ncc3c(n2)CCN(Cc2sccc2C)C3)c(OC)c1	.	-1%	-1	.	17%	?
Cc1cccc(CN2CCN(C(=O)CN(C)C(C)C(=O)Nc3ccc(C(N)=O)cc3)CC2)c1 (stereo not given)	5%	1%	1	i	-3%	?
Cc1cc(C)c2c(c1)-c1c(ssc1=S)C(C)(C)N2C(=O)CN1C(=O)c2ccccc2C1=O	-8%	-5%	-7	-8%	9%	?
CC1CN(C2CCN(S(=O)(=O)Cc3ccccc3)CC2)CC(C)O1 (stereo not given)	-20%	4%	-2	-6%	-2%	?
CCCOc1ccc(-c2nc(C#N)c(NCCCn3ccnc3)o2)cc1	-6%	-7%	2	-2%	17%	.
CCOC(=O)c1cc2c(ccn2C)n1Cc1ccccc1Cl	-16%	2%	-1	-2%	4%	50µM*
COc1cc(Br)c(CNc2cc(C)ccc2C)cc1OC	-23%	-1%	0	-8%	15%	28µM*
CCC(CO)Oc1cc(NCc2ccc(C)c(C)c2)c2ncn(C(C)C)c2c1 (stereo not given)	-16%	1%	-5	i	33%[activator]	.
O=C(c1ccccc1F)N1CCN(Cc2cccc(Cl)c2)CC1	-4%	3%	4	-8%	-1%	6.3µM*
CCN(CC)CC(=O)Nc1c2c(nc3ccccc13)N(C)CC2	-10%	-5%	0	-9%	-14%	.
C/C(=C\c1ccccc1)CN1CCN(c2ccccc2)CC1	-5%	-8%	15	-10%	-6%	14µM*
COc1ccc(-c2nnc(NC(=O)CS(=O)(=O)c3ccc(Cl)cc3)o2)c(OC)c1	-17%	-5%	5	-3%	-4%	0%
CC(=O)c1n[nH]nc1Nc1nc(C)cc(C)n1	-10%	6%	-1	-3%	5%	?
Cc1cc(-c2nn(-c3ccccc3F)cc2CNCCc2cnc[nH]2)c(C)s1	-25%	8%	-4	3%	-2%	.
COc1ccc(/C=N/N2CCOCC2)cc1COc1ccc(Cl)cc1	-18%	?	-4	-7%	4%	?
Cc1cccc(SCC(=O)Nc2ccccc2[N+](=O)[O-])c1	-13%	-8%	2	i	3%	.
c1ccc(-n2cnc3cc(NCc4ccccn4)ccc32)cc1	-13%	-5%	-10	4%	15%	?
CCOC(=O)c1cc(CC)sc1/N=C/c1c(O)ccc2ccccc12	-5%	7%	0	-8%	?	4.5µM*
CN(C)S(=O)(=O)c1cc(NC(=O)CNCc2ccc(F)cc2)ccc1Cl	-4%	1%	-13	5%	2%	3.5µM*
O=C(CNCc1ccncc1)Nc1cc(S(=O)(=O)N2CCCCC2)ccc1Cl	-6%	?	5	-8%	-8%	13µM*
COc1ccc(CN2CCN(Cc3ccc(OC)c(OC)c3OC)CC2)cc1	-5%	-2%	-19	-5%	44%[activator]	?

(continued)
SMILES	Pol eta inh	Pin1 inhibitor	PI4K2A block	PGK inhibitor	GLS inhibitor	G9a block
CN1CCN(S(=O)(=O)c2cccc(C(=O)Nc3cccc([N+](=O)[O-])c3)c2)CC1	-8%	3%	5	-9%	4%	.
CC(O)CNCCCOc1cccc(C(F)(F)F)c1 (stereo not given)	-6%	-5%	7	-8%	0%	-134%[59 µM]
CCOc1ccc2[nH]cc(-c3csc(N)n3)c2c1	-12%	31%[activator]	-6	.	12%	16%[0.501 µM]
COc1ccccc1Nc1c([N+](=O)[O-])cc(C)cc1[N+](=O)[O-]	-16%	4%	1	.	4%	6.3µM*
CC(=O)Nc1ccc(NC(=O)CSc2ccc3nnc(-c4ccccn4)n3n2)cc1	-12%	?	-3	0%	-6%	-3%
CSc1ccccc1NC(=O)CN(C)CC(=O)Nc1ccccc1F	0%	6%	2	0%	1%	3.5µM*
COc1ccccc1Nc1ccc([N+](=O)[O-])cc1N	-14%	22%	-6	-2%	42%[activator]	?
NNC(=O)c1ccc(N2CCc3ccccc32)c([N+](=O)[O-])c1	-2%	-4%	-4	-4%	?	40µM*
O=C(Nc1sc2c(c1C(=O)c1ccccc1)CCCC2)c1cccnc1	-4%	2%	2	1%	-13%	40µM*

Gathered by group: those above containing a Cl atom
SMILES	Pol eta inh	Pin1 inhibitor	PI4K2A block	PGK inhibitor	GLS inhibitor	G9a block
Clc1ccc(OCCn2c(-c3ccco3)nc3ccccc32)cc1	-21%	22%	-5	-9%	.	14%[12.7 µM]
Cc1ccc(-c2cc(N)n(Cc3cccc(Cl)c3)n2)cc1	-15%	-8%	3	8%	9%	?
CCOC(=O)C1CCCN(Cc2c(Cl)cccc2Cl)C1 (stereo not given)	-11%	-3%	6	-2%	1%	?
Cc1ccc(Nc2nc(N)nc(CN3CCN(c4ccccc4)CC3)n2)cc1Cl	-19%	1%	-3	i	4%	?
COc1ccc(NC(=O)CN(C)CCOc2ccc(Cl)cc2)cc1OC	-20%	-8%	12	-3%	-7%	45µM*
COc1cccc(-c2cnc(NCc3ccccc3Cl)n2C)c1	-11%	-3%	-1	-7%	16%	10µM*
COc1ccc(S(=O)(=O)N(c2onc(C)c2Cl)S(=O)(=O)c2ccc(OC)cc2)cc1	3%	2%	-6	9%	8%	?
CCOC(=O)c1cc2c(ccn2C)n1Cc1ccccc1Cl	-16%	2%	-1	-2%	4%	50µM*
O=C(c1ccccc1F)N1CCN(Cc2cccc(Cl)c2)CC1	-4%	3%	4	-8%	-1%	6.3µM*
COc1ccc(-c2nnc(NC(=O)CS(=O)(=O)c3ccc(Cl)cc3)o2)c(OC)c1	-17%	-5%	5	-3%	-4%	0%
COc1ccc(/C=N/N2CCOCC2)cc1COc1ccc(Cl)cc1	-18%	?	-4	-7%	4%	?
CN(C)S(=O)(=O)c1cc(NC(=O)CNCc2ccc(F)cc2)ccc1Cl	-4%	1%	-13	5%	2%	3.5µM*
O=C(CNCc1ccncc1)Nc1cc(S(=O)(=O)N2CCCCC2)ccc1Cl	-6%	?	5	-8%	-8%	13µM*

A portion of the library; rates above refer to the full screens.
